Source: PubChem
UUG fidelity – modulators of yeast start codon fidelity, primary screen, whole organism, S. cerevisiae, single point, plate reader. S. cerevisiae UUG-firefly luciferase reporter, luminescence/redox ratio. activity score, % at 18.7 µM. 350,000 tested, 0.13% active. AID 602363, 2012;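 active = replicate mean at a twofold rise or more, about +100% in these data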;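 note: firefly luciferase made from a UUG start codon reports start codon fidelity; reporter light over untreated wells divided by growth signal over untreated wells; some hits fall short of that in this replicate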
MT1-MMP act inh – blockers of MT1-MMP proenzyme processing, primary screen, HT1080 RFP-PRO-GFP cells, GFP/RFP fluorescence; Matrix metalloproteinase-14 (Homo sapiens), P50281; GFP/RFP ratio fluorescence, overnight; percent of plate control window, DMSO zero; GFP/RFP ratio change, % at 20 µM; 360,000 tested, 0.061% active;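 active = GFP/RFP ratio change of at least 30% with cell ATP level not reduced by more than half and red fluorescence within 50% of control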; note: strong numbers were not always called active
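system = RFP-PRO-GFP reporter HT1080 cells | dosing = 20 µM single dose, 1% DMSO | timing = overnight cell settling, then overnight compound exposure, 37 °C, 5% CO2 | read-out basis = GFP/RFP fluorescence ratio | controls = DMSO and RFP-L50D-GFP cell wells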
eIF4H inh – human eIF4H binding inhibitors, primary screen, translation initiation inhibitor project, biochemical, uHTS, fluorescence polarization | Eukaryotic translation initiation factor 4H (Homo sapiens), Q15056 | eIF4H fluorescence polarization binding assay | inhibition, % at 35 µM | 290,000 tested, 0.94% active;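 active = 50% or more with normal probe brightness, or confirmed in later tests; about a fifth of its hits are not listed in these tables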;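 note: calls also rest on retests at 20 µM and on dose response follow-up; 0% = protein and probe with vehicle and 100% = probe without protein; strong numbers were not always called active; many hits fall short of the cut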
CSC inhib – cancer stem cell viability inhibitors, primary screen, luminescence; 300,000 tested, 1.1% active; cancer stem cell-like cells viability; inhibition, % at 7.5 µM; AID 2717, 2010;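 active = mean at 75% or more and at least half the replicates too; tested in HMLE shEcad cells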;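 note: 0% = median of negative and 100% = median of positive control wells; the first replicate is given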
Env fusion inh – inhibitors of HIV-1 Env-driven cell-cell fusion, primary screen, HeLa-JRFL effector, CEM21 target cells, luciferase. inhibition, % at 12.3 µM. 360,000 tested, 1.1% active. AID 651610, 2012;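 active = mean replicate inhibition score of at least 50 and every replicate individually at or above 50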;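 note: 0% = plate neutral controls and 100% = maraviroc near 300 nM; one replicate is shown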
Rce1 inhib – yeast Rce1p protease inhibitors, primary screen, biochemical, fluorescence, cell-free homogeneous. CAAX prenyl protease 2 (Saccharomyces cerevisiae (strain ATCC 204508 / S288c)), Q03530. yeast membranes, quenched prenylated peptide cleavage fluorescence. AID 2563, 2010. calls only. 290,000 tested, 0.27% active;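 active = fall in fluorescence gain of 50% or more versus controls, with final raw signal at or below 3038400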;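 note: plate controls were neutral control wells for no effect and wells lacking membranes for full effect; tested at 10 µM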
Target sequence (Q03530 whole entry, looked up): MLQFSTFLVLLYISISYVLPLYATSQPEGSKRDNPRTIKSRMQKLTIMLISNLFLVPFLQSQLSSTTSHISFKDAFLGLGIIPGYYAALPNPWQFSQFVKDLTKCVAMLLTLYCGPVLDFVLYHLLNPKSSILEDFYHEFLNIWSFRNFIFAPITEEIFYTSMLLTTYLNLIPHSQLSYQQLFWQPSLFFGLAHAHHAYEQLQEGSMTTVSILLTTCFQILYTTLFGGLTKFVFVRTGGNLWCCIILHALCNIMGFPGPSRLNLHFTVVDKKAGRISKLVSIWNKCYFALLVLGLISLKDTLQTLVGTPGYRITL
PABP FP inh – PABP poly(A) RNA binding inhibitors, primary screen, biochemical, fluorescence polarization, uHTS | Polyadenylate-binding protein 1 (Homo sapiens), P11940 | inhibition, % at 35 µM | 290,000 tested, 1% active | AID 2014, 2009;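 active = 50% or more with normal probe brightness, or confirmed in later tests; about a fifth of its hits are not listed in these tables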;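 note: calls also rest on retests at 20 µM and on dose response follow-up; controls were probe without protein and protein plus probe with vehicle; some compounds called inactive have numbers as strong as hits; many hits fall short of the cut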
Target sequence (P11940 whole entry, looked up): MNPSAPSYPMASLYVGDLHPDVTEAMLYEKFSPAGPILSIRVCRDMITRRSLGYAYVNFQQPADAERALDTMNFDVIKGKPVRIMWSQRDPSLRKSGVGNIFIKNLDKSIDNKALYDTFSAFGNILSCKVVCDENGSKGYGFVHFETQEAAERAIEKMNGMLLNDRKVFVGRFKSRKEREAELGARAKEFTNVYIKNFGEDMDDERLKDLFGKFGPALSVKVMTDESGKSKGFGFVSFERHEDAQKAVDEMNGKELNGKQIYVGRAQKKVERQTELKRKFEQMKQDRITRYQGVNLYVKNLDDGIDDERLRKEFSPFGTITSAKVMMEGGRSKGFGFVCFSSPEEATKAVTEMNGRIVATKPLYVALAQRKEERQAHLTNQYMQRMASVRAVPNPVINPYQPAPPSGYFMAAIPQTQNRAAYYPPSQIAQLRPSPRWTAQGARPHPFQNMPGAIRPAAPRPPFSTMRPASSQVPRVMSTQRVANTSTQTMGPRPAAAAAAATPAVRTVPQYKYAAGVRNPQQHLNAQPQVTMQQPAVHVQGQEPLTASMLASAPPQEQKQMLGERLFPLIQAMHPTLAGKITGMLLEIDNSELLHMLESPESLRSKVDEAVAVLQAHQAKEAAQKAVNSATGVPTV
MT1-MMP act inh RFP – second read-out of MT1-MMP act inh, no call of its own (marks repeat the call); RFP signal change, %; measured here: RFP expression control read;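 0 = vehicle wells; hits needed this value within 50% of zero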
The depositor's hits bear a star; i = inactive; · = not tested or not shown.

1) CCOc1ccc(OCCSc2nc3ccccc3c(=O)[nH]2)cc1
2) Cc1ccc(S(=O)(=O)Cn2nnnc2C(C(C)C)N2CCC(O)CC2)cc1 (stereo unspecified)
3) CC(C)COc1ccc(/C=C2/Sc3ccccc3C2=O)cc1
4) O=C(Nc1cccnc1)c1ccc(Cl)c(S(=O)(=O)N2CCc3ccccc32)c1
5) Cc1noc(C)c1COc1ccc(C(=O)OCC(=O)Nc2ccc3ccccc3c2)cc1
6) N#CCCN(C(=O)COc1ccc(F)cc1Br)c1ccccc1F
7) Cc1nnc(N/N=C/c2c(Cl)cccc2Cl)n1N
8) C/C(=N\N(C)C)c1ccc(OCCOc2ccc([N+](=O)[O-])cc2)cc1
Compound	1	2	3	4	5	6	7	8
MT1-MMP act inh	-3	0	17	1	11	5	2	4
Rce1 inhib	i	i	i	i	i	i	i	i
UUG fidelity	-17	1	-3	·	-11	-26	·	-2
eIF4H inh	-13	8	6	4	-10	-4	-16	-6
MT1-MMP act inh RFP	-6	1	33	-9	9	-3	8	-4
CSC inhib	-11	·	·	12	-5	-1	0	32
PABP FP inh	5	2	6	6	6	-10	5	-2
Env fusion inh	-23	7	·	10	-52	11	-8	5

9) O=C(COC(=O)C1CC2CCCC(C1)C2=O)NNC(=O)c1ccccc1Br (stereo unspecified)
10) O=C(CCC(=O)NC1CC1)Nc1nnc(C2CCCCC2)s1
11) CC1(Cc2ccc3c(c2)OCO3)NC(=O)NC1=O (stereo unspecified)
12) CN(C)CCNC(=O)NC(=O)c1ccc(Cl)cc1
13) CCN(c1cccc(C)c1)S(=O)(=O)c1c(C)[nH]c(=O)[nH]c1=O
14) CC12CCC(=O)N1C(C(=O)Nc1nc3c(F)cc(F)cc3s1)CS2 (stereo unspecified)
15) O=c1c2cc(Cl)ccc2nc(-c2ccc([N+](=O)[O-])cc2)n1O
16) CC(=O)N1CCOc2ccc(S(=O)(=O)NCc3ccccc3Cl)cc21
Compound	9	10	11	12	13	14	15	16
MT1-MMP act inh	0	0	3	3	-2	-7	3	-1
Rce1 inhib	·	i	i	i	i	·	i	i
UUG fidelity	-21	14	-18	2	-17	-6	·	·
eIF4H inh	·	-5	-1	1	-12	-5	8	-4
MT1-MMP act inh RFP	4	-3	5	1	5	-2	0	-3
CSC inhib	-7	-9	-3	5	-9	3	50	0
PABP FP inh	·	-3	6	-6	-14	5	6	5
Env fusion inh	0	-57	-12	0	·	-7	10	-21

17) COc1ccc(-c2csc(NC(=S)NC(=O)/C=C/c3ccccc3)n2)cc1Br
18) CCN(c1ccccc1)S(=O)(=O)c1ccc(C(=O)Nc2nnc(-c3ccco3)o2)cc1
19) CCCN(CCC)S(=O)(=O)c1ccc(C(=O)Nc2nnc(CSC)o2)cc1
20) CCCCOc1ccc(C(=O)Nc2cccc(C)n2)cc1
21) CC(/C=C1\SC(=S)N(NC(=O)c2ccc(O)cc2)C1=O)=C\c1ccccc1
22) COc1ccc(NC(C)=O)cc1S(=O)(=O)Nc1ccc(C(=O)N2CCCC2)cc1
23) O=C(c1ccc(Br)o1)N1CCN(Cc2ccccc2Cl)CC1
24) Cc1ccc(NC(=O)c2ccc(S(=O)(=O)N3CCCC3)cc2)cc1
Compound	17	18	19	20	21	22	23	24
MT1-MMP act inh	·	2	-3	-3	3	-2	0	0
Rce1 inhib	i	i	i	i	i	i	i	i
UUG fidelity	·	·	-30	-32	·	·	3	-14
eIF4H inh	-21	11	9	-6	40	-6	6	·
MT1-MMP act inh RFP	·	-3	-1	-14	4	-1	-4	-2
CSC inhib	23	87*	37	0	76*	-4	·	-9
PABP FP inh	6	-7	-5	-2	0	13	6	·
Env fusion inh	-9	14	11	-34	·	-8	-6	·

A draw from above in order of number of heavy atoms, largest number first.
18) CCN(c1ccccc1)S(=O)(=O)c1ccc(C(=O)Nc2nnc(-c3ccco3)o2)cc1
17) COc1ccc(-c2csc(NC(=S)NC(=O)/C=C/c3ccccc3)n2)cc1Br
21) CC(/C=C1\SC(=S)N(NC(=O)c2ccc(O)cc2)C1=O)=C\c1ccccc1
16) CC(=O)N1CCOc2ccc(S(=O)(=O)NCc3ccccc3Cl)cc21
23) O=C(c1ccc(Br)o1)N1CCN(Cc2ccccc2Cl)CC1
20) CCCCOc1ccc(C(=O)Nc2cccc(C)n2)cc1
Compound	18	17	21	16	23	20
MT1-MMP act inh	2	·	3	-1	0	-3
Rce1 inhib	i	i	i	i	i	i
UUG fidelity	·	·	·	·	3	-32
eIF4H inh	11	-21	40	-4	6	-6
MT1-MMP act inh RFP	-3	·	4	-3	-4	-14
CSC inhib	87*	23	76*	0	·	0
PABP FP inh	-7	6	0	5	6	-2
Env fusion inh	14	-9	·	-21	-6	-34

(continued)
25) CCOC(=O)C(C)Sc1nc2ccccc2c(=O)n1CC1CCCCC1 (stereo unspecified)
26) COc1cc(CN2CCNC(=O)C2CC(=O)N(Cc2nccn2C)C(C)C)cc(OC)c1 (stereo unspecified)
27) CCc1nnc(NC(=O)CCC(=O)NC2CCCc3ccccc32)s1 (stereo unspecified)
28) COc1cccc(-c2cnc(C(O)c3ccc(Cl)c(Cl)c3)[nH]2)c1 (stereo unspecified)
29) CN(C)CCCNC(=O)c1cc(C(=O)c2ccc(F)cc2)c[nH]1
30) CSCCC(c1nnnn1C1CCCC1)N1CCN(C/C=C/c2ccccc2)CC1 (stereo unspecified)
31) COc1ccc(-c2[nH]c3ccccc3c2SCCN)cc1
32) COc1cccc(CC2(CO)CCCN(S(=O)(=O)N(C)C)C2)c1 (stereo unspecified)
Compound	25	26	27	28	29	30	31	32
MT1-MMP act inh	1	-6	3	5	2	3	20	2
Rce1 inhib	i	i	i	·	i	·	i	i
UUG fidelity	-8	·	·	-19	-17	-8	-6	·
eIF4H inh	-6	6	-1	·	1	·	-1	2
MT1-MMP act inh RFP	3	2	7	-4	3	0	-4	6
CSC inhib	16	-8	-15	·	-9	·	-13	0
PABP FP inh	2	25	-7	·	10	·	-4	-5
Env fusion inh	26	3	-4	3	14	i	16	-6

33) O=C(Cn1cc(C(=O)C2CC2)c2ccccc21)NC1CCCC1
34) COc1ccc(F)cc1-c1cc(NC=O)c2ncc(-c3cccc(C(F)(F)F)c3)n2c1
35) Cc1ccc(C(=O)CC(=O)c2ccc(C)cc2O)cc1
36) Cc1ccc(/C=C/c2nnc(-c3cccc(C)c3)o2)cc1
37) O=C(COC(=O)/C=C/c1nc2ccccc2s1)Nc1ccccc1Oc1ccccc1
38) COCCNC(=O)c1cc2c(=O)[nH]c3ccccc3c2s1
39) O=C(NCC1CCCO1)c1cccc(N2C(=O)C3C4C=CC(C4)C3C2=O)c1 (stereo unspecified)
40) Cc1ccc(/C(O)=C2\C(=O)C(=O)N(Cc3cccnc3)C2c2ccccc2[N+](=O)[O-])cc1 (stereo unspecified)
Compound	33	34	35	36	37	38	39	40
MT1-MMP act inh	4	-8	-5	2	4	2	-15	0
Rce1 inhib	i	·	i	i	i	i	i	i
UUG fidelity	6	-2	-8	-10	·	-7	-10	·
eIF4H inh	-7	·	-10	3	11	-2	1	-2
MT1-MMP act inh RFP	-1	-9	-4	0	1	3	-12	10
CSC inhib	-5	·	12	-1	3	3	1	-7
PABP FP inh	-2	·	0	-4	14	4	-3	5
Env fusion inh	-37	41	8	·	24	0	40	-18

41) O=C(COc1ccc(Cl)cc1)NCc1nnc(SCC(=O)Nc2ccc(F)cc2F)o1
42) Cc1cccc(NC(=O)COC(=O)CN2C(=O)C3CCCCC3C2=O)c1C (stereo unspecified)
43) CCn1c(=O)cc(SCC(=O)N2CCN(c3ccccn3)CC2)c2ccccc21
44) COc1ccc(-c2ccc(N)cn2)cn1
45) CC(=O)Nc1c2c(nn1-c1ccccc1C)CS(=O)C2 (stereo unspecified)
46) C=CCn1c(SCc2ccc(C(=O)Nc3ccccc3)cc2)nnc1-c1ccccc1
47) CN1C(=O)N(C)c2cccc3cccc1c23
48) CCC(=O)N1CCN=C1SCc1ccccc1
Compound	41	42	43	44	45	46	47	48
MT1-MMP act inh	-1	-3	6	-1	-1	8	-1	-2
Rce1 inhib	i	·	i	·	i	i	i	i
UUG fidelity	·	-8	-10	-27	-17	-1	-4	-24
eIF4H inh	3	·	12	·	4	-2	2	-4
MT1-MMP act inh RFP	1	-1	6	-1	3	-11	0	6
CSC inhib	-10	·	·	-8	-4	-1	-8	-13
PABP FP inh	38	·	14	·	13	-4	10	1
Env fusion inh	5	0	-54	-41	-5	·	10	4

49) CN1c2ccsc2C(O)=C(C(=S)Nc2ccccc2)S1(=O)=O
50) O=C(Nc1cccc(O)c1)C1CCCN1C(=O)OCc1ccccc1 (stereo unspecified)
51) COc1cc(C2NC(=O)NC(C)=C2C(=O)OCC2CCCO2)cc(OC)c1OC (stereo unspecified)
52) COc1ccc2c(c1OC)C(=O)N1c3ccccc3N=C(c3ccc([N+](=O)[O-])cc3)CC21 (stereo unspecified)
53) Cc1cccc(OCCC(=O)Nc2ccc(F)c(F)c2)c1
54) CCOc1nc(OCC)c2cnn(C)c2n1
55) O=C(NCCc1ccccc1F)[C@@H]1CSC2c3ccccc3C(=O)N21 (stereo partly specified)
56) CC1(C)CC(=O)c2cc(C(=O)N3CCN(CCO)CC3)c(=O)n(-c3ccc(Cl)cc3)c2C1
Compound	49	50	51	52	53	54	55	56
MT1-MMP act inh	9	-2	-1	-2	1	-3	-3	4
Rce1 inhib	i	i	i	·	i	i	i	i
UUG fidelity	-23	-30	-2	·	-12	-13	0	-17
eIF4H inh	44	-7	4	-4	-11	-10	-2	0
MT1-MMP act inh RFP	2	2	2	-2	-3	-2	-2	5
CSC inhib	-18	-5	·	11	-2	7	-5	-9
PABP FP inh	31	-4	-1	2	-16	5	0	-8
Env fusion inh	-45	·	6	-37	3	17	·	·

57) Cc1c(C(=O)CN2CCN(c3ccccc3)CC2)c2ccccc2n1C
58) O=C(O)COCCN1CCN([C@H](c2ccccc2)c2ccc(Cl)cc2)CC1
59) COCCNC(C(=O)Nc1ccc([N+](=O)[O-])cc1Br)c1ccccc1 (stereo unspecified)
60) CCN(CC(=O)Nc1ccc(NC(C)=O)cc1)C(=O)CCCc1nc2ccccc2c(=O)[nH]1
61) CC(=O)Nc1ccc(-c2ccnc3c2CC(C(=O)NCC2CC2)O3)cc1 (stereo unspecified)
62) O=C(Cn1nnc2ccccc21)N1CCCCC1
63) Cc1ccc(/C(N)=N/OC(=O)CCC2CCCC2)cc1
64) Cc1ccc(C(=O)N2CCN(c3ccc(NC(=O)COc4ccccc4C)cc3)CC2)cc1
65) CCC(C)(C)n1nnnc1C(c1ccccc1F)N1CCN(C(=O)c2ccco2)CC1 (stereo unspecified)
Compound	57	58	59	60	61	62	63	64	65
MT1-MMP act inh	10	-4	2	-2	-3	7	2	6	-1
Rce1 inhib	i	i	i	i	·	i	i	i	i
UUG fidelity	-11	-16	·	0	-15	-10	·	1	1
eIF4H inh	-3	-5	12	·	·	-16	3	4	-12
MT1-MMP act inh RFP	6	0	0	2	-6	-2	0	-21	5
CSC inhib	-7	3	·	-11	·	·	-9	-15	-5
PABP FP inh	13	2	8	·	·	2	5	15	5
Env fusion inh	4	-17	-6	5	-52	-8	-1	28	30
